Screens (PubChem)
GIV-Gai inh = GIV-Galpha-i interaction inhibition; P08753; Galpha-i3/FITC-GIV peptide fluorescence polarization, 90 min; hits give low values; scaled: aluminum fluoride 0%, vehicle 100%; percent of control (FP), % (no concentration beside the values); hit rate 0.42% among 210,000; AID 1224905;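 active = replicate mean at 85% of control or lower, very high polarization wells dropped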;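 also: wells of about 15 µL received 100 nL stock; the first replicate is given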
Target sequence (P08753 whole entry, looked up): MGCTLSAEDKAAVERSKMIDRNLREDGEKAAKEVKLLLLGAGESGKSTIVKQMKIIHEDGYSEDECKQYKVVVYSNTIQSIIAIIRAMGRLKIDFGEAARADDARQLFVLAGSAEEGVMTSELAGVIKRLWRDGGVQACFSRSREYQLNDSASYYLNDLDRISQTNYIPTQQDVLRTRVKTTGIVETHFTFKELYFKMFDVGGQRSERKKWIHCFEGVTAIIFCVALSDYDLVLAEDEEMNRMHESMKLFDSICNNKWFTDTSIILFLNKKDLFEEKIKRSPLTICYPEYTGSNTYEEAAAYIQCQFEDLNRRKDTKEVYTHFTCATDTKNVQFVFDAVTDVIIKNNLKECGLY
An asterisk follows results filed as active.

Preview:
GIV-Gai inh | smiles
106 | Cc1n[nH]c(C)c1S(=O)(=O)N1CCc2c(c(-c3nc(-c4ccccc4)no3)nn2C)C1
104 | Cc1ccc(C(=O)Nc2cccc(-c3ccc4ccccc4n3)c2)cc1
101 | Cc1cccc(C(=O)NCc2ccc(-c3nn4cnnc4s3)cc2)c1

The list itself, from the start:
GIV-Gai inh | smiles
106 | Cc1n[nH]c(C)c1S(=O)(=O)N1CCc2c(c(-c3nc(-c4ccccc4)no3)nn2C)C1
104 | Cc1ccc(C(=O)Nc2cccc(-c3ccc4ccccc4n3)c2)cc1
101 | Cc1cccc(C(=O)NCc2ccc(-c3nn4cnnc4s3)cc2)c1
98 | CC(C)c1csc(-c2csc(S(=O)(=O)NCc3ccccc3)c2)n1
107 | CCCCOc1ccc(-c2[nH]nc3c2C2(C(=O)N(CC(=O)O)c4ccccc42)C(C#N)=C(N)O3)cc1 (stereo not drawn)
100 | COc1cccc(NC(=O)CSCc2noc(-c3ccc(C)cc3)n2)c1
114 | CCOC(=O)c1sc2nc(SCC(=O)NCc3ccco3)n(CCC3=CCCCC3)c(=O)c2c1C
103 | COc1cccc(NC(=O)c2nc3c(=O)n(Cc4ccc(Cl)cc4)c4cc(C)ccc4n3n2)c1
109 | COc1ccc(C(=O)Nc2cccc(Cl)c2C)c(OC)n1
112 | Cc1c(Cl)cccc1N1C(=O)C2C3c4ccccc4C(C)(c4ccccc43)C2C1=O (stereo not drawn)
105 | CCOC(=O)c1c(NC(=O)CCCOc2ccc(Cl)cc2Cl)sc(C(=O)Nc2ccc(C)cc2C)c1C
108 | Oc1ccccc1C1=Nc2ccccc2N=C(c2cccc(Br)c2)C1
99 | Cc1nn(-c2ccc3nnc(C)n3n2)c2c1C(c1ccccc1OCc1ccccc1F)CC(=O)N2 (stereo not drawn)
121 | CCCCc1ccc(-c2nc(C=Nc3ccc([N+](=O)[O-])cc3Cl)c(O)o2)cc1
108 | CCc1ccc(-n2ncc3c(=O)n(Cc4nc(-c5ccc(C(C)(C)C)cc5)no4)cnc32)cc1
107 | CCCCCSc1nnc2c(n1)[nH]c1ccccc12
122 | COc1cccc(C2Nc3cccc4cccc(c34)N2)c1
107 | Cc1ccc(CNS(=O)(=O)c2cccc3nsnc23)cc1
119 | CCOC(=O)C1=NN(c2ccccc2)C(c2c[nH]c3ccccc23)N1c1ccc(OC)cc1 (stereo not drawn)
106 | COC(=O)C1=C(C(=O)OC)SC2(S1)C(C(=O)OC)=C(C(=O)OC)SC1=C2c2ccc(OC)cc2NC1(C)C
103 | CC(=O)Nc1ccc(C)cc1S(=O)(=O)N1CCCC(C)(C(=O)NCc2ccccc2C)C1 (stereo not drawn)
112 | CCC(Sc1nc2ccccc2c(=O)n1NC(=O)CCc1c[nH]c2ccccc12)C(=O)NCc1ccco1 (stereo not drawn)
106 | COc1ccc(-c2nn(CN3CCC(C(N)=O)CC3)c(=S)n2-c2ccccc2)cc1
107 | COC(=O)C1=C(C(=O)OC)SC2(S1)C(C(=O)OC)=C(C(=O)OC)SC1=C2c2cc(C)c(C)cc2N(C(=O)c2ccc3c(c2)OCO3)C1(C)C
108 | COCCN(CCOC)c1nc(-c2ccccc2)nc2ccccc12
110 | COCCn1c(SCc2nc(-c3ccc4c(c3)OCO4)no2)nc2cc3c(cc2c1=O)OCO3
98 | Cc1ccc(S(=O)(=O)Nc2ccc(-c3ccc4ccccc4n3)cc2)cc1
99 | Cc1ccc(S(=O)(=O)N2CCC3(CC2)NCCN=C3NC(C)(C)C)cc1
115 | O=C(Nc1ccc(F)cc1)C(Cc1ccccc1)N1C(=O)C2C3c4ccccc4C(c4ccccc43)C2C1=O (stereo not drawn)
107 | O=C(CSc1nc2ccccc2c(=O)n1NC(=O)CCc1c[nH]c2ccccc12)NCC1CCCO1 (stereo not drawn)
101 | O=C(Nc1ccc2c(c1)OCO2)c1nnc(C2CCN(C(=O)NC3CCCCC3)CC2)s1
99 | CCN1CCN(c2ncnc3sc(C(=O)Nc4cccc(Cl)c4)c(C)c23)CC1
113 | Cc1ccc(NC(=O)Cc2[nH]c3ccccc3c2Sc2ccccc2)cc1
103 | COc1ccc(CNC(=O)C2(C)CCCN(S(=O)(=O)c3cc(OC)ccc3OC)C2)cc1 (stereo not drawn)
107 | O=C(CCc1nc(-c2ccc(S(=O)(=O)N3CCOCC3)cc2)no1)N1CCOCC1
104 | Cc1ccc(C2(c3ccc(C)cc3)CC2C(=O)Nc2cccc(C(F)(F)F)c2)cc1 (stereo not drawn)
112 | CC1(C)CC(=O)C2=C(C1)OC(N)=C(C#N)C2c1cccc(OCc2ccccc2)c1 (stereo not drawn)
104 | CC1(C)Cc2ccccc2-c2nc3n(c(=O)c21)CCS3
110 | Cc1ccc(N2C(=O)C(N3C(=O)c4ccccc4C3=O)C2c2ccccc2Br)cc1 (stereo not drawn)
105 | Cc1noc2nc(CCC(=O)NC(C)C)nc(N3CC(C)CC(C)C3)c12 (stereo not drawn)
100 | O=C1CSC(c2cn(-c3ccccc3)nc2-c2cc3ccccc3oc2=O)N1Cc1cccnc1 (stereo not drawn)
101 | O=C(c1ccc(Br)cc1)N1CCN=C1N1CCOCC1
110 | Cc1ccc(C)c(Cn2nc3c(S(=O)(=O)N4CCCCC4)cccn3c2=O)c1
107 | O=C1C2C3c4ccccc4C(CO)(c4ccccc43)C2C(=O)N1c1ccc(Br)cc1 (stereo not drawn)
106 | CCOc1ccc(-c2noc(Cn3nc(-c4ccccc4)c4ccccc4c3=O)n2)cc1

Pulled by compound from the entries so far:
GIV-Gai inh | smiles
114 | CCOC(=O)c1sc2nc(SCC(=O)NCc3ccco3)n(CCC3=CCCCC3)c(=O)c2c1C
99 | Cc1ccc(S(=O)(=O)N2CCC3(CC2)NCCN=C3NC(C)(C)C)cc1
101 | Cc1cccc(C(=O)NCc2ccc(-c3nn4cnnc4s3)cc2)c1
98 | Cc1ccc(S(=O)(=O)Nc2ccc(-c3ccc4ccccc4n3)cc2)cc1
107 | COC(=O)C1=C(C(=O)OC)SC2(S1)C(C(=O)OC)=C(C(=O)OC)SC1=C2c2cc(C)c(C)cc2N(C(=O)c2ccc3c(c2)OCO3)C1(C)C
98 | CC(C)c1csc(-c2csc(S(=O)(=O)NCc3ccccc3)c2)n1

Following part
GIV-Gai inh | smiles
109 | Cc1cc(C)cc(NC(=O)C2CC(O)CN2C(=O)Oc2ccccc2)c1 (stereo not drawn)
107 | CCOc1ccccc1/C=N/NC(=O)c1nnn(-c2nonc2N)c1CN1CCCCCC1
109 | NS(=O)(=O)c1ccc(CCNC(=O)CSc2nc3ccccc3c(=O)n2CC2COc3ccccc3O2)cc1 (stereo not drawn)
104 | Cn1nnc2c(Nc3ccc(Nc4ccccc4)cc3)ncnc21
96 | COc1cc(NS(=O)(=O)c2cc(-c3nc(C)cs3)cs2)cc(OC)c1
100 | CN(Cc1ccccc1)C(=O)CSc1nc2cc(C(=O)N3CCC(C(N)=O)CC3)ccc2c(=O)n1-c1ccc(F)cc1
105 | Cc1c(C(=O)NCCN2CCOCC2)sc2ncn(CC(=O)Nc3cccc(C(F)(F)F)c3)c(=O)c12
112 | COc1ccc(Oc2coc3cc(OC(=O)c4cncc(Br)c4)ccc3c2=O)cc1
114 | CC(C)c1ccc(NC(=O)c2cc(S(=O)(=O)NCc3ccccc3)ccc2F)cc1
116 | CN1CCN(c2ccc(Nc3ccnc4cc(Cl)ccc34)cc2)CC1
99 | COc1ccc(N2CCN(c3nccc4ccc(C(=O)Nc5ccc(OC)c(OC)c5)cc34)CC2)cc1
111 | COc1ccc(-c2nc(-c3ccc4c(c3)C(=O)c3ccccc3-4)c(-c3ccccc3)[nH]2)c(OC)c1
95 | CNC(=O)C1CN(C(=O)CC2CCCCC2)CC12CCCC2 (stereo not drawn)
101 | CCOCCCNC(=O)CCc1c(C)nn(-c2ccc3nnc(C)n3n2)c1C
110 | O=S1(=O)c2ccccc2S(=O)(=O)N1c1cccc(C(F)(F)F)c1
118 | COc1ccc(N2C(=O)CSC2c2ccccc2C(F)(F)F)cc1Cl (stereo not drawn)
103 | COC(=O)c1ccc2c(=O)n(Nc3ccc(Cl)nn3)c(SCc3cccc(F)c3)nc2c1
105 | COc1cc(C2CC(=O)Nc3ccc4ccccc4c32)ccc1OCc1ccccc1 (stereo not drawn)
103 | O=C1CN(Cc2ccccc2F)S(=O)(=O)c2ccccc2N1Cc1ccccc1
108 | COc1cccc(NC(=O)c2cccc(Oc3ccnc(-c4cccc(C)c4)n3)c2)c1
102 | CCOc1c(Br)cc(C2Nc3ccc(CC)cc3[C@H]3OCC[C@@H]23)cc1OC (stereo partly drawn)
104 | CCC(C)NC(=O)C1CC(=O)N(c2ccc3c(c2)CCN3C(C)=O)C1 (stereo not drawn)
98 | CCOc1ccccc1-c1nc(-c2ccc(NC(=O)c3cccs3)cc2)no1
113 | CCOC(=O)C1=C(C)N=c2s/c(=C/c3ccc4c(c3)OCO4)c(=O)n2C1c1cc(OC)ccc1OC (stereo not drawn)
104 | COc1ccccc1CNC(=O)Cn1cnc2sc(C(=O)Nc3ccc(F)c(Cl)c3)c(C)c2c1=O
97 | Cn1c(=O)c2nc(SCC(=O)O)n(Cc3ccccc3)c2n(C)c1=O
104 | O=C(NCCc1csc(-c2ccccc2)n1)[C@H]1CCCN1C(=O)c1ccc(Br)cc1
95 | O=C(C1CC(=O)N(c2ccccc2)C1)N1CCN(c2ncnc3c2nnn3-c2ccc(F)cc2)CC1 (stereo not drawn)
105 | Fc1ccc(C2N(Cc3ccc(Cl)cc3)CCN2Cc2ccc(Cl)cc2)cc1
102 | O=C(NCc1c(-c2ccccc2)nc2n1CCS2)C1c2ccccc2Oc2ccccc21
103 | COc1ccc2c(c1)NC1(CCN(C(=O)Nc3ccc(F)cc3F)CC1)c1cccn1-2
109 | O=C(NCc1ccccc1)C1CCN(C(=O)Nc2ccc(S(=O)(=O)N3CCOCC3)s2)CC1
101 | COc1ccc(NC(=O)NCCC2CCN(S(=O)(=O)c3ccc(C)cc3)CC2)cc1OC
115 | Cc1ccccc1OCCCC(=O)Nc1nnc(C(C)C)s1
101 | CCOc1ccc(-n2c(N)c(C(N)=O)sc2=S)cc1
102 | CS(=O)(=O)NC1CCN(C(=O)C2CCCC2)C1 (stereo not drawn)
101 | O=C(NC1CCCN(c2cc(N3CCCC3)ncn2)C1)c1ccco1 (stereo not drawn)
104 | CNC(=O)c1cnn2c3c(cnc12)CCCCCC3
113 | N#CC1(C#N)[C@H](c2c(F)cccc2Cl)[C@@H](C(=O)c2ccc(F)cc2)N2c3ccccc3C=C[C@@H]21
99 | CNC(=O)c1csc2c1CCCCC2
107 | COc1ccc(NC2(c3nnnn3-c3ccc(OC)c(OC)c3)CCCC2)cc1OC
109 | COC(=O)c1ccc(C2C=C(c3ccccc3)Nc3nc4ccccc4n32)cc1 (stereo not drawn)
103 | Cc1ccc(C)c(CSc2nnc3c(S(=O)(=O)N4CCCC4)cccn23)c1
98 | Cn1cc(CN2CCC(C(=O)NCC3CCCO3)CC2)c2cc(Cl)ccc21 (stereo not drawn)
101 | COc1cccc(C(=O)Nc2c3c(nn2C(C)(C)C)CS(=O)(=O)C3)c1

An excerpt of these results, as labelled records.
> COc1ccc(NC(=O)NCCC2CCN(S(=O)(=O)c3ccc(C)cc3)CC2)cc1OC
  GIV-Gai inh: 101

> Cc1ccccc1OCCCC(=O)Nc1nnc(C(C)C)s1
  GIV-Gai inh: 115

> CCOc1ccc(-n2c(N)c(C(N)=O)sc2=S)cc1
  GIV-Gai inh: 101

> CS(=O)(=O)NC1CCN(C(=O)C2CCCC2)C1 (stereo not drawn)
  GIV-Gai inh: 102

Later entries:
GIV-Gai inh | smiles
110 | COc1ccc(/C(O)=C2\C(=O)C(=O)N(c3nnc(C)s3)C2c2ccccc2F)cc1 (stereo not drawn)
109 | COc1ccc(C(C2=C(O)CC(C)(C)CC2=O)C2C(=O)CC(C)(C)CC2=O)cc1OC (stereo not drawn)
111 | COc1cc(C2Nc3cccc4cccc(c34)N2)cc(OC)c1OC
108 | COc1ccc(C2CC(c3cccs3)=NN2C(=O)CSc2nnc(CNC(=O)Cc3ccccc3)n2C)cc1 (stereo not drawn)
96 | CCc1ccc(C2=C(C)C(N3CCC(NC(=O)C(C)(C)CC)CC3)=NS2(=O)=O)cc1
105 | CCS(=O)(=O)c1nc2ccc(NS(=O)(=O)c3ccccc3Cl)cc2s1
114 | O=C(Nc1ccc(-c2noc(-c3cccs3)n2)cc1)c1cccc(Cl)c1
103 | O=c1ccc2cc(S(=O)(=O)NCCN3CCc4ccccc4C3)ccc2[nH]1
97 | O=C(NCC1CCCO1)c1cc(NS(=O)(=O)c2ccc3c(c2)CCCC3)cnc1N1CCNCC1 (stereo not drawn)
108 | COc1ccc(N2C(=O)C3C(C2=O)N2CCCN2C3c2ccc(Cl)cc2)cc1 (stereo not drawn)
112 | CCc1cc2c(=O)n3c(nc2s1)-c1[nH]c2ccc(OC)cc2c1CC3
110 | COc1ccc(C=Nc2c(C)n(C)n(-c3ccccc3)c2=O)cc1Br
102 | Cc1ccc(C(C)NC(=O)c2ccc(Oc3ccnc(-c4cccc(C)c4)n3)cc2)cc1 (stereo not drawn)
98 | O=C(NCCC1=CCCCC1)C1CCN(c2cnc(N3CCCC3)nc2)CC1
106 | Cc1ccccc1C(=O)[C@@H]1[C@@H](c2ccccc2)C(C#N)(C#N)[C@H]2C=Cc3cc(Cl)ccc3N12
104 | N#Cc1cc2c(nc1SCC(O)COc1ccc(Cl)cc1)CCCC2 (stereo not drawn)
101 | COc1ccc(CSc2nccc3c2ccn3CC(=O)Nc2ccccc2OC)cc1
104 | CC1(C)OC2OC(C(=O)NC(CCC(=O)O)C(=O)O)C3OC(C)(C)OC3C2O1 (stereo not drawn)
100 | CCOC(CNC(=O)c1c[nH]c2ccc(S(=O)(=O)N(C)c3ccccc3CC)cc2c1=O)OCC
97 | Cn1nnc2c(Nc3ccc(F)c(Cl)c3)ncnc21
100 | C=CCOc1c(OC)cccc1C1CC(=O)Nc2c1cnn2-c1nc2ccccc2s1 (stereo not drawn)
95 | Cc1ccc(C)c(Nc2ncnc3c2cnn3C)c1
106 | O=C(O)c1c[nH]c2ccc(S(=O)(=O)N3CCOCC3)cc2c1=O
103 | CCOc1ccc(C(=O)N2CCCC(c3nc(-c4cccc(NC(=O)CC)c4)no3)C2)cc1 (stereo not drawn)
107 | CCN1C(=O)c2cccc3c(S(=O)(=O)N4CCC(Cc5ccccc5)CC4)ccc1c23

Only part of the results is shown; rates above refer to the full screens.
